MITF inh: inhibitors of MITF, primary screen, MITF inhibitor project, cell-based, luminescence | TRPM1 promoter luciferase, 24 h | inhibition, % (test concentration not listed) | 0.28% of 37,000 active | AID 2240, 2010;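 active = most replicates at 85% or more, or half of them and the mean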;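 note: human melanocyte line stably carrying TRPM1 promoter luciferase reporter; 0% = vehicle wells and 100% = a positive control; the first replicate is given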
YB-1 expression: inhibitors of YB-1 gene expression, primary screen, cell-based, fluorescence; U2OS, qRT-PCR YB-1 vs CDIP delta delta Cp, 16 h; active compounds read high; zero = DMSO, each unit about twofold; delta delta Cp (YB-1 minus CDIP) (no concentration beside the values); 0.37% of 30,000 active; AID 434959, 2010;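 active = delta delta Cp rounded down to an integer at or above 3, about 3 SD of DMSO wells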;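 note: higher means less YB-1 transcript or more CDIP transcript relative to DMSO; stock transfer was 100 nL into about 100 µL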
Hedgehog inh: Hedgehog pathway signaling inhibitors, primary screen, luminescence, Shh-LIGHT2 cells, Gli-luciferase. Shh-LIGHT2 Gli-luciferase reporter, 30 h. inhibition, % (test concentration not listed). 2.1% of 22,000 active;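 active = replicate mean of 65% or more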;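 note: pathway switched on by Shh-conditioned medium diluted 1 in 25 in low serum; 100 nL library stock added to about 40 µL; 0% = median of neutral wells and 100% = positive control level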
PD-1 reverse act: activators reversing PD-1 mediated T-cell inhibition, primary screen, luminescence, primary human CD4 T cells, PD-L1 beads | CellTiter-Glo 96 h | activation, % (concentration not given with the values) | 29,000 tested, under 10 active | AID 2316, 2010;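 active = replicate mean of 50% or more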;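 note: 0% = median vehicle wells and 100% = positive control; 100 nL library stock added to about 50 µL; numbers are from one replicate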
* hit, by the source's call; . = no result given. An excerpt; rates above refer to the full screens.

The line under a structure holds: YB-1 expression	MITF inh	Hedgehog inh	PD-1 reverse act
COc1ccc(S(=O)(=O)N(C)C[C@H]2Oc3ccc(NC(=O)CCC(F)(F)F)cc3C(=O)N([C@H](C)CO)C[C@@H]2C)cc1
→ 0.17	-9	.	-1.0
Cc1cc(C)nc(SC(C)C(=O)Nc2ccccc2)n1 (stereo unspecified)
→ .	2	.	-2.1
Cc1nc(SCC(=O)c2ccccc2)c2sc3nc4c(cc3c2n1)COC(C)(C)C4
→ .	-94	.	-0.2
C[C@@H]1CN([C@H](C)CO)C(=O)c2cccc(NC(=O)c3ccncc3)c2O[C@@H]1CN(C)S(=O)(=O)c1cccs1
→ 0.16	-58	-10	2.1
CC(C)NC(=O)N(C)C[C@H]1OCCCC[C@@H](C)Oc2ccc(NC(=O)Nc3ccc(F)cc3)cc2C(=O)N([C@H](C)CO)C[C@@H]1C
→ 0.2	-3	-16	-0.9
CC(C)NC(=O)Nc1ccc2c(c1)CC(=O)N([C@H](C)CO)C[C@@H](C)[C@H](CN(C)Cc1ccc(-c3ccccc3)cc1)O2
→ -0.028	-4	54	3.1
CC1OC(OC2C(O[C@H]3OC[C@](O)(CO)[C@H]3O)COC(O[C@@H]3[C@@H](O)[C@@H](O)[C@H](OC4C(OC(=O)[C@]56CCC(C)(C)CC5C5=CCC7[C@@]8(C)C[C@H](O)[C@H](OC9OC(CO)C(O)C(O)C9O)[C@@](C)(CO)C8[C@H](O)C[C@@]7(C)[C@]5(C)CC6)OCC(O)C4O)O[C@H]3C)C2O)C(O)C(O)C1O (stereo partly specified)
→ 0.13	11	4	-6.4
C[C@@H]1CCCCO[C@@H](CN(C)C(=O)Nc2ccccc2)[C@@H](C)CN([C@H](C)CO)C(=O)c2cc(NS(=O)(=O)c3ccc(F)cc3)ccc2O1
→ 0.073	1	12	-0.7
COc1ccc(NC(=O)Nc2ccc3c(c2)C(=O)N([C@H](C)CO)C[C@H](C)[C@@H](CN(C)S(=O)(=O)c2cn(C)cn2)OCCCC[C@@H](C)O3)cc1
→ -0.051	-7	-11	.
O=[N+]([O-])c1ccc(CSc2nnc(-c3ccccn3)n2-c2ccccc2)cc1
→ .	1	.	0.1
C=C(C(=O)O[C@H]1C/C(C)=C\CC/C(CO)=C\[C@H]2OC(=O)C(=C)[C@H]12)C(O)CO (stereo partly specified)
→ 0.93	-33	18	-2.9
Cc1noc(C)c1NC(=O)N(C)C[C@@H]1Oc2ccc(NC(=O)Nc3ccccc3)cc2C(=O)N([C@H](C)CO)C[C@@H]1C
→ -0.026	-10	-28	1.1
C[C@@H]1CCCCO[C@H](CN(C)Cc2ccc3c(c2)OCO3)[C@@H](C)CN([C@H](C)CO)C(=O)c2cc(NS(=O)(=O)c3cccs3)ccc2O1
→ 0.29	6	28	-1.7
C[C@@H]1CN([C@H](C)CO)C(=O)Cc2cc(NC(=O)Nc3ccc4c(c3)OCO4)ccc2O[C@H]1CN(C)CC1CC1
→ -0.14	-10	.	0.9
C[C@@H]1CN([C@@H](C)CO)C(=O)Cc2cc(NS(=O)(=O)c3ccc(F)cc3)ccc2O[C@@H]1CN(C)C(=O)Nc1ccccc1
→ -14	-14	-8	.
COc1ccc(NC(=O)N(C)C[C@@H]2Oc3ccc(NS(=O)(=O)c4ccccc4)cc3C(=O)N([C@@H](C)CO)C[C@@H]2C)cc1
→ -0.18	-4	.	0.0
COc1ccc(CN(C)C[C@H]2Oc3ccc(NC(=O)Nc4cccc5ccccc45)cc3CC(=O)N([C@H](C)CO)C[C@H]2C)cc1
→ -0.041	-4	15	.
Cc1ccc(C(C)C)c(OCc2ccc(C(=O)Nc3sc4c(c3C#N)CCCC4)o2)c1
→ .	-15	.	0.2
Cc1noc(C)c1NC(=O)Nc1ccc2c(c1)C(=O)N([C@@H](C)CO)C[C@@H](C)[C@@H](CN(C)Cc1ccncc1)O2
→ -0.0077	-4	.	0.5
Cc1noc(C)c1S(=O)(=O)Nc1ccc2c(c1)C(=O)N([C@@H](C)CO)C[C@H](C)[C@H](CN(C)C(=O)Nc1ccccc1)O2
→ -0.071	-1	56	-1.3
CCC1CCc2c(sc3ncnc(N4CCOCC4)c23)C1 (stereo unspecified)
→ 0.81	-3	-25	0.0
C[C@@H]1CN([C@@H](C)CO)C(=O)c2cc(NC(=O)Cn3cnnn3)ccc2O[C@@H]1CN(C)Cc1ccc2c(c1)OCO2
→ -0.027	-12	.	2.2
COc1ccc(NC(=O)N(C)C[C@@H]2Oc3c(NC(=O)C4CCOCC4)cccc3C(=O)N([C@@H](C)CO)C[C@H]2C)cc1
→ -0.28	5	13	.
C[C@@H]1CN([C@@H](C)CO)C(=O)c2cc(NC(=O)Cc3cn(C)c4ccccc34)ccc2O[C@H]1CN(C)C
→ 0.044	-2	.	-0.5
COc1ccc(NC(=O)Nc2ccc3c(c2)CC(=O)N([C@H](C)CO)C[C@@H](C)[C@@H](CN(C)S(=O)(=O)c2ccc(F)cc2)O3)cc1
→ -0.11	-1	.	.
C[C@@H]1CN([C@@H](C)CO)C(=O)c2cc(NS(C)(=O)=O)ccc2O[C@H]1CN(C)C(=O)Nc1ccc(F)cc1
→ -0.16	4	-1	.
C[C@@H]1CN([C@@H](C)CO)C(=O)Cc2cc(NC(=O)NC3CCCCC3)ccc2O[C@@H]1CN(C)C(=O)Nc1ccc2c(c1)OCO2
→ 0.14	-2	-69	.
O=C(Cn1ccc([N+](=O)[O-])n1)NCc1ccccc1
→ .	-17	.	1.2
CC(C)NC(=O)Nc1ccc2c(c1)C(=O)N([C@H](C)CO)C[C@H](C)[C@H](CN(C)C(=O)Nc1ccccc1)O2
→ 0.2	3	-5	0.4
COc1ccc(S(=O)(=O)Nc2ccc3c(c2)CC(=O)N([C@@H](C)CO)C[C@H](C)[C@H](CN(C)S(=O)(=O)c2ccc(Cl)cc2)O3)cc1
→ -0.26	-2	7	.

A second format for some results above.
Cc1ccc(C(C)C)c(OCc2ccc(C(=O)Nc3sc4c(c3C#N)CCCC4)o2)c1
  YB-1 expression: .
  MITF inh: -15
  Hedgehog inh: .
  PD-1 reverse act: 0.2

Cc1noc(C)c1NC(=O)Nc1ccc2c(c1)C(=O)N([C@@H](C)CO)C[C@@H](C)[C@@H](CN(C)Cc1ccncc1)O2
  YB-1 expression: -0.0077
  MITF inh: -4
  Hedgehog inh: .
  PD-1 reverse act: 0.5

Cc1noc(C)c1S(=O)(=O)Nc1ccc2c(c1)C(=O)N([C@@H](C)CO)C[C@H](C)[C@H](CN(C)C(=O)Nc1ccccc1)O2
  YB-1 expression: -0.071
  MITF inh: -1
  Hedgehog inh: 56
  PD-1 reverse act: -1.3

CCC1CCc2c(sc3ncnc(N4CCOCC4)c23)C1 (stereo unspecified)
  YB-1 expression: 0.81
  MITF inh: -3
  Hedgehog inh: -25
  PD-1 reverse act: 0.0

Continued.
The line under a structure holds: YB-1 expression	MITF inh	Hedgehog inh	PD-1 reverse act
CC1(C)CC(NC(=O)/C=C/C(=O)NC2CC(C)(C)NC(C)(C)C2)CC(C)(C)N1
→ -0.065	-24	.	1.0
CCN(CC(=O)Nc1cccc(SC)c1)S(=O)(=O)c1ccc2ccccc2c1
→ .	6	.	0.4
Cc1ccc(S(=O)(=O)Nc2ccc3c(c2)C(=O)N([C@H](C)CO)C[C@H](C)[C@@H](CN(C)S(=O)(=O)c2ccccc2)OCCCC[C@@H](C)O3)cc1
→ -0.22	16	40	.
N=C1S/C(=C/c2ccccc2)C(=O)N1c1nonc1N
→ 0.52	-28	-81	-6.7
C[C@@H]1CN([C@H](C)CO)C(=O)c2cccc(NC(=O)Nc3ccccc3)c2O[C@H]1CN(C)C(=O)Nc1ccccc1
→ 0.059	-15	15	-0.6
O=C(C1c2ccccc2Oc2ccccc21)N1CCCc2ccccc21
→ -0.0065	1	46	0.9
COc1ccc(CCNC(=O)Nc2ccc(C(C)=O)cc2)cc1OC
→ .	-6	.	2.5
Cc1nnc(SCC(=O)Nc2ccccc2N2CCOCC2)s1
→ .	-1	.	0.2
Cc1ccc(S(=O)(=O)N(C)C[C@@H]2Oc3c(NS(=O)(=O)c4ccc(Cl)cc4)cccc3C(=O)N([C@H](C)CO)C[C@@H]2C)cc1
→ -0.47	10	-29	-1.1
C[C@H](CO)N1C[C@H](C)[C@H](CN(C)S(=O)(=O)c2ccc(F)cc2)Oc2c(NS(=O)(=O)c3cn(C)cn3)cccc2C1=O
→ 0.04	2	11	1.6
CC(C)NC(=O)Nc1ccc2c(c1)C(=O)N([C@H](C)CO)C[C@@H](C)[C@H](CN(C)Cc1ccc(C(=O)O)cc1)O2
→ 0.013	1	-39	1.8
C[C@@H]1CN([C@@H](C)CO)C(=O)c2cccc(NC(=O)Nc3ccc(F)cc3)c2O[C@H]1CN(C)Cc1ccc(Oc2ccccc2)cc1
→ -0.24	28	-127	.
N#CCCN(Cc1ccco1)S(=O)(=O)c1ccccc1
→ .	-16	.	-0.4
Cn1cnc2c(NCc3ccccc3)nc(NCCO)nc21
→ 0.39	-3	-8	2.5
Cc1cc(C(=O)Nc2cccc3c2O[C@H](CN(C)S(=O)(=O)c2cccs2)[C@@H](C)CN([C@H](C)CO)C3=O)n(C)n1
→ 0.11	-12	-51	1.3
COc1ccc(-c2cc(C)nc(SCc3cccc(C(=O)O)c3)n2)cc1
→ .	-25	.	0.4
CC(=O)OCC(=O)[C@@]1(O)CC[C@H]2[C@@H]3CCC4=CC(=O)CC[C@]4(C)[C@H]3[C@@H](O)C[C@@]21C
→ 0.21	-35	55	-2.1
Cc1cc(=O)n2c3ccccc3n(CC(O)CNc3ccccc3)c2c1C#N (stereo unspecified)
→ .	-25	.	-1.9
COc1ccc(C2CC(=O)Oc3cc(O)cc(O)c32)cc1 (stereo unspecified)
→ -0.062	-10	-22	0.1
COc1cc(OC)cc(-c2nnc(SCC(=O)NC3CC4CCC3C4)o2)c1 (stereo unspecified)
→ .	2	.	-0.1
C[C@@H]1CN([C@@H](C)CO)C(=O)Cc2cc(NC(=O)CCC(F)(F)F)ccc2O[C@@H]1CN(C)C
→ 0.1	-2	-16	.
C[C@H]1CN([C@@H](C)CO)C(=O)Cc2cc(NS(=O)(=O)c3cn(C)cn3)ccc2O[C@H]1CN(C)C(=O)Nc1ccc(C(F)(F)F)cc1
→ -0.0017	-16	-1	1.9
COC(=O)c1cc2cc(O)c(-c3c(O)cc4cc(C(=O)OC)oc(=O)c4c3O)c(O)c2c(=O)o1
→ -0.4	6	9	1.8
CCc1cc(O)c(C)c(O)c1C=O
→ 0.41	.	3	.
Cc1ccc(C(=O)CSc2nnc(-c3ccco3)o2)o1
→ .	-53	.	-0.1
O=C(CSc1nnc(-c2cccs2)n1-c1ccc(F)cc1)Nc1ccc(Cl)c(Cl)c1
→ .	-14	.	-0.9
Cc1noc(C)c1NC(=O)N(C)C[C@@H]1Oc2ccc(NC(=O)Cc3cn(C)c4ccccc34)cc2CC(=O)N([C@H](C)CO)C[C@@H]1C
→ -0.49	-11	4	0.2
O=C(CSc1nnc(-c2cnccn2)n1-c1ccccc1)Nc1cc(C(F)(F)F)ccc1Cl
→ .	41	.	1.0
O=C(/C=C/c1ccccc1)O[C@@H]1C[C@@](O)(C(=O)O)C[C@@H](O)[C@@H]1O
→ -1.5	9	-16	1.7
Cc1cccc(NC(=O)CSc2nnc(-c3cccs3)n2-c2ccccc2)c1C
→ .	1	.	-0.7
C[C@@H]1CN([C@@H](C)CO)C(=O)c2cc(NS(=O)(=O)c3cn(C)cn3)ccc2O[C@@H]1CN(C)C
→ -0.011	3	-9	0.3
CCN(CC)CCSc1nnc2c3ccccc3n(CC(N)=O)c2n1
→ -0.45	-13	2	0.3
O=C(Nc1cccnc1)C1CC(c2ccc(Cl)c(Cl)c2)=NO1 (stereo unspecified)
→ .	14	.	-0.9
Cc1ccc(NC(=O)Cn2cncc2-c2ccc([N+](=O)[O-])cc2)cc1C
→ .	22	.	-2.6
COc1ccc(NC(=O)Nc2ccc3c(c2)CC(=O)N([C@@H](C)CO)C[C@H](C)[C@@H](CN(C)S(=O)(=O)c2ccccc2)O3)cc1
→ 0.024	-4	-32	-0.1
Cn1c(SCC(=O)Nc2ccc3c(c2)oc2ccccc23)nnc1-c1ccccc1
→ .	-1	.	-2.1
C[C@H]1CN([C@@H](C)CO)C(=O)c2cccc(NC(=O)c3ccc(-c4nccs4)cc3)c2O[C@H]1CN(C)S(=O)(=O)c1ccc(F)cc1
→ -0.19	-29	11	0.6
COc1cc(C)c(Br)cc1S(=O)(=O)NCCCN1CCOCC1
→ .	3	.	0.5
Cc1cc(Br)cnc1N=CNO
→ -0.18	-4	-15	2.2
Cc1sc(NC(=O)COc2ccc(-c3ccccc3)cc2)c(C(N)=O)c1C
→ .	-23	.	1.2
Cc1noc(C)c1NC(=O)Nc1ccc2c(c1)C(=O)N([C@@H](C)CO)C[C@@H](C)[C@H](CN(C)C)O2
→ 0.028	1	8	.
